Screens (PubChem)
BJeLR viability = BJeLR cell viability loss; BJeLR (HRASV12) viability, CellTiter-Glo ATP luminescence, 48 h; reference of the scale not given here; inhibition, % (test concentration not listed); 300,000 compounds, 0.17% hits; AID 1554;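 active = replicate mean above 50%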;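 note: 50 nL library stock added to about 25 µL; numbers are from one replicate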
The depositor's hits bear a star. The list is partial (hit frequency here may not be typical).

compound	BJeLR viability
Cc1cccc2c1[nH]c1nc(N/N=C\c3ccco3)nnc12	1
CCCc1cc(=O)oc2c3c(c(Cl)cc12)OCN(CCCO)C3	0
O=C(NCc1ccccc1)C1=C[C@@H](c2csc3ccccc23)C[C@@H](OCCCCO)O1	42
COc1cc(/C=C2\SC(=Nc3ccc(F)cc3)N(c3ccc(F)cc3)C2=O)ccc1OCC(=O)O	-2
C[n+]1cccc(/C=N/Nc2nc(Cl)c(C#N)c(Cl)c2Cl)c1	-26
Oc1c(Br)cc(/C=N/n2c(-c3ccccc3)n[nH]c2=S)c(Br)c1O	-13
CCOC(=O)C1=C(C)N=c2s/c(=C/c3cccc(OCC(=O)O)c3)c(=O)n2C1c1ccc(F)cc1 (stereo unspecified)	-1
CC(=O)O[C@H]1CC[C@]2(C)[C@H]3CC=C4[C@@H]5[C@@H](C)[C@H](C)CC[C@]5(C(=O)O)CC[C@@]4(C)[C@]3(C)CC[C@H]2C1(C)C	-9
Cc1sc2c(c1C)C(=O)NC(c1cccc(O)c1)N2 (stereo unspecified)	-12
O=S1(=O)c2ccccc2N=NN1Cc1ccc(Cl)c(Cl)c1	2
Cn1c(-c2nnn(-c3ccc(F)cc3)n2)cc2ccccc21	-9
CC(C)(C)c1cc(CN2CCCCC2)cc(C(C)(C)C)c1O	-12
O=C1/C(=C/c2cc3c(cc2Cl)OCO3)N2CCC1CC2	-4
COc1ccc(OCCOc2cccc(C=C3C(=O)NC(=O)NC3=O)c2)cc1	0
O=C(O)C[C@H](O)C[C@H](O)/C=C/c1c(C2CC2)nc2ccccc2c1-c1ccc(F)cc1	53*
COC(=O)CC1C(=O)NC(C)=C1C(=O)OC (stereo unspecified)	-1
COc1cc(/C=N/O)ccc1OCc1ccc(Cl)cc1	-8
CC(=O)c1cc2c(cc1NC(=O)c1ccc(C)cc1)OCO2	9
Clc1ccc(C2[C@H]3CN(Cc4ccc(-c5ccccc5)cc4)[C@H](c4ccccc4)C34CC2(c2ccccc2)C4)cn1 (stereo partly specified)	8
Cc1ccc2[nH]c3c(c2c1)CN(C(=O)CN1CCN(c2ccccc2F)CC1)CC3	-5
O=C1N=C(C=c2ccc(=Cc3[nH]c(=O)[nH]c3O)cc2)C(=O)N1	-8
C#CCOCCOCCOCCNc1nc(N2CCN(C(=O)[C@H](CCC(=O)O)n3cc(C(N)CO)nn3)CC2)nc(N2CCN(C(=O)[C@H](CCCCN)n3cc(C(N)[C@H](C)CC)nn3)CC2)n1 (stereo partly specified)	15
C=C1C[C@@H]2[C@H](CC[C@]3(C)C(=O)CC[C@@H]23)[C@@]2(C)C=CC(=O)C=C12	-3
COC(=O)C/C=C/[C@@H](C)[C@@H](/C=N/OCC[C@@H]1C=C[C@H](OC(C)=O)[C@@H](COC(C)=O)O1)NS(=O)(=O)c1ccc(C)cc1	6
Cc1ccc(C2c3c(oc4ccc(Cl)cc4c3=O)C(=O)N2CCCN2CCOCC2)o1 (stereo unspecified)	1
Cc1ccc(OCCn2cnc3sc(C(N)=O)c(C)c3c2=O)cc1	3
COC(=O)C1=C(C)N(CCc2cc(OC)c(OC)c(OC)c2)C(=O)N[C@H]1c1cccs1	3
COc1ccc(C(=O)N/N=C/c2ccc(N(C)c3ccccc3)cc2)cc1	1
O=C(O)C1Nc2ccc(OC(F)(F)F)cc2C2C=CCC12 (stereo unspecified)	5
COc1ccc(-n2cnnc2SC(C)c2nc3sc(C)c(C)c3c(=O)[nH]2)cc1 (stereo unspecified)	-4
S=C(NCCNCc1ccccc1)NC1CCCCC1	19
CCOC(=O)C1=C(c2ccccc2)O/C(=C(/C#N)C(F)(F)F)S1	44
CC1(OC(=O)c2cccs2)C(=O)C=C2C=C(c3ccc(C#N)cc3)OC=C2C1=O (stereo unspecified)	12
CCCCN(C)CC(O)Cn1cc(/C=C/C(=O)c2ccc(OCC)cc2)c2ccccc21 (stereo unspecified)	10
O=C(c1ccc2c(c1)OCO2)N1CCC2(CC1)Oc1ccc(Cl)cc1C(=O)C21CC(c2ccc(Cl)cc2)=NO1 (stereo unspecified)	-5
c1ccc2nc(OCCN3CC3)ccc2c1	3
Cc1ccc(-c2csc(N3N=C(c4ccccc4)/C(=C\c4ccc(N(C)C)cc4)C3=O)n2)cc1	2
CSc1nc(NCc2ccco2)c2c3c(sc2n1)CN(C)CC3	-8
O=C1/C(=C\c2ccco2)SC(=S)N1C1CCCCC1	-7
Cc1ccc(-n2c(C)cc(/C=c3/sc4nc5ccccc5n4c3=O)c2C)cc1	8
Cc1nccn1CC(=O)N/N=C/c1ccc(O)c(O)c1	3
COc1ccc2c(c1)O[C@@H](c1cccc(C(F)(F)F)c1)[C@H](OC(=O)N[C@H]1CCCc3ccccc31)C2=O	5
N#Cc1ccc(C23CC4(C2)[C@H](CN(Cc2ccc(-c5ccccc5)cc2)[C@@H]4c2ccccc2)C3c2ccc(C(F)(F)F)cc2)cc1 (stereo partly specified)	7
CCn1c(SCC(=O)NCCOC)nc2sc(C)c(C)c2c1=O	-7
C#CCOCCOCCOCCNc1nc(N2CCN(C(=O)[C@H](CCC(=O)O)n3cc(C(N)[C@H](C)CC)nn3)CC2)nc(N2CCN(C(=O)[C@H](Cc3cc4ccccc4[nH]3)n3cc(C(N)[C@H](C)CC)nn3)CC2)n1 (stereo partly specified)	-1
COc1ccc2[nH]cc(C3=CCNCC3)c2c1	4
COc1ccc(N2CCN(C(=O)c3ccc4c(c3)NC(=O)C(CSCc3cccc(F)c3)N4)CC2)cc1 (stereo unspecified)	15
O=C1Nc2cc(C(=O)N3CCC4(CC3)OCCO4)ccc2NC1CSCc1cccc(F)c1 (stereo unspecified)	-8
C#CCOCCOCCOCCNc1nc(N2CCN(C(=O)C([C@@H](C)CC)n3cc(C(N)CO)nn3)CC2)nc(N2CCN(C(=O)[C@H](CCC(=O)O)n3cc(C(N)[C@H](C)CC)nn3)CC2)n1 (stereo partly specified)	-4
C#CCOCCOCCOCCNc1nc(N2CCN(C(=O)[C@H](CCCCN)n3cc(C(N)CO)nn3)CC2)nc(N2CCN(C(=O)[C@H](CCCCN)n3cc(C(N)COC(=O)C(F)(F)F)nn3)CC2)n1 (stereo partly specified)	0

Other results
compound	BJeLR viability
CC(C)(C)S(=O)(=O)c1ccc(S(=O)(=O)C(C)(C)C)s1	5
CCC[C@H]1COCCS(=O)(=O)N1Cc1ccc(Br)cc1	-4
COC/C=C/C1=CC2=CC(=O)C(C)(OC(=O)c3cnc4ccccc4n3)C(=O)C2=CN1C1CCCC1 (stereo unspecified)	1
Cc1ccc(/C=N/n2c(C)nc3ccccc3c2=O)s1	-1
CS(=O)(=O)c1ccc(-c2cc(Br)sc2-c2ccc(F)cc2)cc1	7
N/C(=N\OC(=O)COc1ccc([N+](=O)[O-])cc1)c1ccc(Br)cc1	7
C=CCN1C(=Nc2cccnc2)SCC1(O)c1ccc(C)cc1 (stereo unspecified)	12
O=C(Nc1c(-c2cccs2)nc2ccccn12)c1ccc2ccccc2c1	-1
O=C1OC(c2ccc(F)cc2)=C/C1=C\c1ccc([N+](=O)[O-])o1	-1
Cn1cc(/C=C(\C#N)C(=O)Nc2ncc(Cc3cccc(Cl)c3)s2)c2ccccc21	0
CC(=O)N(CC(C)(C)CC=C(C)C)c1ccccc1	-14
CN(C)CCCNS(=O)(=O)c1ccc(N2CCC(c3ccc(Cl)cc3)=N2)cc1	8
O=C1c2cccc(O)c2C(=O)c2c(O)cc(CO)cc21	-8
C(=C\c1ccccc1)/C=N/Nc1ccc2nncn2n1	-3
COC(=O)C1=C(C)N(Cc2ccccc2)C(=NCC(C)C)N[C@H]1c1ccccc1	4
CCC(C)[C@@H](N)C(=O)N/N=C/c1cccc2nccnc12 (stereo partly specified)	-3
O=C(O)CCc1nc(-c2ccccc2)c(-c2ccccc2)o1	6
CCCCN1C(=O)/C(=C2/Sc3ccc(Cl)cc3N2CC)SC1=S	-4
CC(=O)O[C@H]1C[C@@H]2CC[C@@H]3[C@H](CC[C@@]4(C)[C@H]3C[C@H]([N+]3(C)CCCCC3)[C@@H]4OC(C)=O)[C@@]2(C)C[C@@H]1N1CCCCC1	3
NC1=CC(=O)c2cccc3cccc1c23	-9
O=c1/c(=C/c2ccccc2)sc2nnc(-c3cccs3)n12	-1
CC(=O)c1ccc(Nc2c3c(c(C#N)c4nc5ccccc5n24)CCC3)cc1	0
O=C(O)C1Nc2c(cccc2C(F)(F)F)C2C=CCC12 (stereo unspecified)	-1
C/C(CC(=O)Nc1ccccn1)=N\NC(=O)c1ccccc1	-9
CC(OC(=O)c1ccc(Cl)c(S(=O)(=O)N2CCCC2)c1)C(=O)NC1CCCCC1C (stereo unspecified)	4
COc1ccc2nc(N/C(N)=N/C(=S)Nc3ccc(C)c(C)c3)nc(C)c2c1	4
COC(=O)[C@@H]1CC[C@H](C)[C@@H](c2ccc(C)cc2)N1C(=O)c1ccc(/C=N/O[C@@H](C)CN2CCCCc3nc(C)c(C)cc32)cc1	9
CO[C@H]1C=CO[C@@]2(C)Oc3c(C)c(O)c4c(O)c(c(C=NN5CCN(C6CCCC6)CC5)c(O)c4c3C2=O)NC(=O)C(C)=CC=C[C@H](C)[C@H](O)[C@@H](C)[C@@H](O)[C@@H](C)[C@H](OC(C)=O)[C@@H]1C	8
CC(=O)c1ccc(OC(=O)c2cc3ccccc3oc2=O)cc1	3
CCOC(=O)c1c(NC(=S)N2CCOCC2)sc2c1CCN(C(=O)OCC)C2	4
Cc1cc(=O)[nH]c(S)c1C#N	-5
COc1ccc(N(CC(=O)N/N=C/c2ccc3c(c2)OCO3)S(=O)(=O)c2ccccc2)cc1	0
CCn1c(SCC(=O)Nc2ccc(-c3nc4ccc(C)cc4s3)cc2)nnc1-c1ccccc1	-7
Cc1cccc(NC(=O)C2C3C=CC(O3)C2C(=O)O)c1 (stereo unspecified)	-5

In another format: three of the compounds above.
Compound: CCOC(=O)c1c(NC(=S)N2CCOCC2)sc2c1CCN(C(=O)OCC)C2
  BJeLR viability = 4

Compound: Cc1cc(=O)[nH]c(S)c1C#N
  BJeLR viability = -5

Compound: COc1ccc(N(CC(=O)N/N=C/c2ccc3c(c2)OCO3)S(=O)(=O)c2ccccc2)cc1
  BJeLR viability = 0

Entries from the list above that have a carbonyl joined to an NH by a bond outside any ring:
compound	BJeLR viability
O=C(NCc1ccccc1)C1=C[C@@H](c2csc3ccccc23)C[C@@H](OCCCCO)O1	42
CC(=O)c1cc2c(cc1NC(=O)c1ccc(C)cc1)OCO2	9
Cc1ccc(OCCn2cnc3sc(C(N)=O)c(C)c3c2=O)cc1	3
COc1ccc(C(=O)N/N=C/c2ccc(N(C)c3ccccc3)cc2)cc1	1
Cc1nccn1CC(=O)N/N=C/c1ccc(O)c(O)c1	3
COc1ccc2c(c1)O[C@@H](c1cccc(C(F)(F)F)c1)[C@H](OC(=O)N[C@H]1CCCc3ccccc31)C2=O	5
CCn1c(SCC(=O)NCCOC)nc2sc(C)c(C)c2c1=O	-7
O=C(Nc1c(-c2cccs2)nc2ccccn12)c1ccc2ccccc2c1	-1
Cn1cc(/C=C(\C#N)C(=O)Nc2ncc(Cc3cccc(Cl)c3)s2)c2ccccc21	0
CCC(C)[C@@H](N)C(=O)N/N=C/c1cccc2nccnc12 (stereo partly specified)	-3
C/C(CC(=O)Nc1ccccn1)=N\NC(=O)c1ccccc1	-9
CC(OC(=O)c1ccc(Cl)c(S(=O)(=O)N2CCCC2)c1)C(=O)NC1CCCCC1C (stereo unspecified)	4
COc1ccc(N(CC(=O)N/N=C/c2ccc3c(c2)OCO3)S(=O)(=O)c2ccccc2)cc1	0
CCn1c(SCC(=O)Nc2ccc(-c3nc4ccc(C)cc4s3)cc2)nnc1-c1ccccc1	-7
Cc1cccc(NC(=O)C2C3C=CC(O3)C2C(=O)O)c1 (stereo unspecified)	-5
